Arbovirus inh: antivirals against arbovirus infection, primary screen, cell-based, full library, 10K replicate subset | arbovirus infection cell-based antiviral screen | inhibition, % at 10 µM | actives 0.37% (n = 200,000) | AID 1251, 2008;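 active = inhibition from about 30%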;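 note: bluetongue infection of BSR cells; cell survival read as ATP light after 72 h; 0% = infected wells without compound and 100% = uninfected wells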
RecA intein inh: Mtb RecA intein splicing inhibitors, primary screen, biochemical, fluorescence, HTS | Protein RecA (Mycobacterium tuberculosis (strain ATCC 25618 / H37Rv)), P9WHJ3 | cell-free RecA intein splicing | inhibition, %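 (about 9 µM by stock and volumes)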 | actives 0.75% (n = 290,000); in the data active = inhibition above about 30%; inconclusive = no clear call, values can overlap the other calls;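 note: 0% = vehicle wells and 100% = reference inhibitor control wells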
Target sequence (P9WHJ3 whole entry, looked up): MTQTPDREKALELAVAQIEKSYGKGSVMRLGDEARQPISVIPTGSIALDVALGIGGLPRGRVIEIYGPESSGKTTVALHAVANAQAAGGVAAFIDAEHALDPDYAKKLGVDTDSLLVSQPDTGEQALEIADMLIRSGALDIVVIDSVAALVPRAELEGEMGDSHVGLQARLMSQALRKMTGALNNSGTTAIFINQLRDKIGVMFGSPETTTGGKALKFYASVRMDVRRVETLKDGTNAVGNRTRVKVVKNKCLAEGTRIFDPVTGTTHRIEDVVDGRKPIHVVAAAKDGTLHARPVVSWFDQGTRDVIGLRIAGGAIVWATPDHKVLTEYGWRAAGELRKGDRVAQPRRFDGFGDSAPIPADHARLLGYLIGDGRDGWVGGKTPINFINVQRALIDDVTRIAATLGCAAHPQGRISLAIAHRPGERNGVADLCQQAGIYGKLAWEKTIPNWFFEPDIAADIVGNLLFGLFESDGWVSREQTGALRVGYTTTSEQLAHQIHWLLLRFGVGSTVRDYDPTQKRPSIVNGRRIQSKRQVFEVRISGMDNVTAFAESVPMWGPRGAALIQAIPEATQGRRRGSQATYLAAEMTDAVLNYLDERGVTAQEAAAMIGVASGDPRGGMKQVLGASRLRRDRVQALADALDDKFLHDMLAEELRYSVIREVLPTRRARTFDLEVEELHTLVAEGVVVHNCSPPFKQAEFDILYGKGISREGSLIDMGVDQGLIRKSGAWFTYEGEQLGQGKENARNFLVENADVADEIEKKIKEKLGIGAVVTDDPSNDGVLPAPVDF
YopH inh: YopH tyrosine phosphatase inhibitors, primary screen, biochemical, fluorescence Ex485/Em525. YopH tyrosine phosphatase [Yersinia enterocolitica]. inhibition, %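 (about 10 µM by stock and volumes)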. actives 0.16% (n = 140,000). AID 898, 2007;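 active = inhibition of 50% or more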;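 note: controls were vehicle for no effect and minimum signal wells for full effect; inactives centre near -20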
Mtb bLac sens: beta-lactam sensitization of Mtb H37Rv, H37Rv. M. tuberculosis H37Rv growth with meropenem, percent inhibition; hits of this screen are not shown here. inhibition, % at 25 µM. actives 0.27% (n = 330,000);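 active = about 74% or more and at least 40 points above the plate without the antibiotic, then above 30% in a dose series; inconclusive = first-round hits that could not be retested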;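 note: growth measured after seven days incubation then overnight dye step; 0% = bacteria only wells and 100% = bacteria with antibiotic; twin plates without the antibiotic show which effects depend on it; some results filed as inactive read as strong as hits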
Mtb growth: M. tuberculosis H37Rv growth inhibitors, H37Rv strain (AID 1626); M. tuberculosis H37Rv growth inhibition; higher % means a stronger effect; inhibition, % at 10 µM, or IC50 in µM where a hit was titrated; actives 0.95% (n = 220,000);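 active = confirmed in a dose series; inconclusive = inhibition above 80% but not taken into the dose series; inactive = below 80% or under 30% at every dose of the series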;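 note: bacteria incubated seven days before Alamar blue readout; 0% = bacteria only wells and 100% = bacteria with antibiotic wells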
Arbovirus inh repeat: second read-out of Arbovirus inh, no call of its own (marks repeat the call); inhibition, %; measured here: 10K subset replicate screen; many hits read low in the repeat;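 first of two repeat runs on a subset; 0% = infected and 100% = uninfected wells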
Active calls of the source: *; ? = inconclusive; nt = no result given; & = joins results of further samples. The list is partial (hit frequency here may not be typical).

SMILES	Arbovirus inh	RecA intein inh	YopH inh	Mtb bLac sens	Mtb growth	others
O=C(NC(=S)NNC(=O)c1cnccn1)c1ccc(Cl)cc1	nt	5.7	nt	6.4	nt
Cc1nnc(NC(=O)c2nn(CC(C)C)c(=O)c3ccccc23)s1	6.1	1.6	nt	-2.3	-6.8%
CCc1cccc(CC)c1NC(=O)CN1CCN(S(=O)(=O)c2ccccc2)CC1	nt	0.5	nt	-12.9	nt
CC1=C(C(=O)OC(C)C)C(c2cccc([N+](=O)[O-])c2)n2c(cc(=O)[nH]c2=S)N1 (stereo not drawn)	10.5	3.9	-31.4	8.7	-0.5%
S=c1[nH]nc(-c2cccnc2)n1/N=C/c1cccs1	2.8	-0.9	-40.1	-16.2	-9.0%
CCC(=O)Nc1cc(C(=O)O)ccc1Sc1ccccc1	5.8	-2.7	nt	2.1	2.5%
CCn1cnc2c1c(=O)n(CC(=O)Nc1ccc(C(N)=O)cc1)c(=O)n2Cc1ccccc1	nt	-1.9	nt	-6.0	-8.3%
O=C(N/N=C/c1cccc(O)c1)c1ccc(COc2cccc3cccnc23)cc1	-2.8	0.6	nt	-2.0	7.1%
CCc1[nH]c(=O)c(C#N)c2c1CSC(C)(C)C2	-6.1	-0.6	-2.9	-5.0	-11.6%
CCOC(=O)N1CCC(NC(=O)c2ccc(CS(=O)(=O)c3ccc(OC)cc3)o2)CC1	2.0	0.0	-51.1	3.0	-8.3%	Arbovirus inh repeat=4.3
COCC1CCN(Cc2cn[nH]c2-c2cc3ccccc3o2)C1 (stereo not drawn)	5.4	3.7	nt	-10.8	11.8%
CC(=O)Nc1ccccc1C(=O)C(=O)Nc1ccc(C(=O)NCC2CCCO2)cc1 (stereo not drawn)	-9.1	-1.5	nt	-4.9	4.3%
COc1ccc(N2CCN(C(=O)CN(c3cccc(OC)c3)S(=O)(=O)c3ccccc3)CC2)cc1	nt	-2.8	nt	-14.2	nt
O=C(CS(=O)(=O)c1ccccc1)NCc1ccco1	-3.7	-1.4	nt	-3.9	-1.9%
CSCCC(NC(=O)c1cncc(Br)c1)C(=O)O (stereo not drawn)	9.8	0.8	-5.7	-5.8	4.4%
CN(CCC#N)C(=O)COC(=O)c1ccccc1C(=O)c1ccc(Cl)c([N+](=O)[O-])c1	2.5	5.2	nt	2.7	-2.5%
c1ccc(-c2onc(-c3ccco3)c2-c2ccc3[nH]ccc3c2)cc1	nt	7.0	nt	-12.0	nt
CCOC(=O)C1CCCN(C(=O)c2cc(-c3ccccc3)on2)C1 (stereo not drawn)	7.9	1.2	-34.3	10.2	-0.4%
O=C(NC(=O)N1CCCCCC1)c1ccccc1	nt	1.6	nt	-25.4	nt
COc1ccc(N2C(=O)CCC(C(=O)O)C2c2ccc(OC)c(OC)c2)cc1 (stereo not drawn)	5.6	-1.9	-15.2	3.9	-19.4%
Cc1cc(CNC(=O)C2(C(F)(F)F)CC(CCCO)CCCO2)nn1C (stereo not drawn)	nt	-1.3	nt	3.6	-12.8%
CCOc1cc(/C=C(/C#N)c2ccc(F)cc2)ccc1OCc1ccc(C(=O)O)o1	2.5	8.2	-3.2	94.1	9.0%
Cc1cc(C)cc(NC(=O)C2(c3ccccc3)CC2(Cl)Cl)c1 (stereo not drawn)	-21.1	3.6	2.9	12.2	-0.3%
CCCN(CCC)S(=O)(=O)c1ccc(N2CCCC2=O)c([N+](=O)[O-])c1	6.4	-4.0	-40.9	8.2	0.8%
COc1ccccc1N1C(=O)NC(=O)/C(=C/c2ccc3c4c(cccc24)CC3)C1=O	-5.1	-1.9	-35.5	2.9	0.4%
CCCn1c(SCC(=O)/C(C#N)=C(\C)N)n[nH]c1=O	4.0	-1.1	-3.6	5.8	-16.5%
O=C(NCCSC1CCCCC1)c1ccccc1	-1.6	-1.5	nt	-6.9	2.6%
COc1ccccc1OCC(=O)N1CCNC1=O	23.6	-0.4	-8.5	-5.4	-1.4%
CC1CN(CN2C(=O)c3ccccc3C2=O)CC(C)O1 (stereo not drawn)	4.5	nt	-46.8	7.6	1.0%
O=C(O)c1ccc(NC(CSCc2cccc(F)c2)C(=O)O)c([N+](=O)[O-])c1 (stereo not drawn)	0.4	-0.8	-41.3	6.9	1.2%
CCN(CC)CCNC(=S)Nc1ccc2nc3n(c(=O)c2c1)CCCCC3	-2.5	-0.5	nt	-5.9	-12.7%
CC(C)C(=O)NC(=S)Nc1ccc(S(=O)(=O)N2CCN(C)CC2)cc1	4.6	-4.8	-26.9	-3.1	-6.9%
CCCN(CC1CC1)C(=O)CCc1nnc(C(OC)c2ccccc2)o1 (stereo not drawn)	2.1	-3.8	nt	-3.4	1.2%
CC(c1ccccc1)n1c(Cn2ncc3ccccc3c2=O)n[nH]c1=S (stereo not drawn)	0.5	-0.4	nt	-4.8	1.8%
O=C(O)CCc1nc(-c2ccccc2)c(-c2ccccc2)o1	1.5	-0.2	nt	-2.8	-11.0%&-4.8%
O=[N+]([O-])c1ccc2[nH]c(O)c(N=Nc3ccc(F)cc3)c2c1	nt	0.3	nt	-6.0	nt
COc1ccc(OC(=O)COc2ccc(Cl)cc2)cc1	nt	16.5	nt	1.0	nt
COc1cc(/C=N/NC(N)=O)cc([N+](=O)[O-])c1O	-1.6	-3.0	nt	6.9	4.1%
CS(=O)(=O)N1CCN(c2ccccc2NC(=S)NC(=O)c2ccco2)CC1	nt	0.1	nt	-1.4	nt
COc1cc(OC)c(OC)cc1CCC(C)NCCC(c1ccccc1)c1ccccc1 (stereo not drawn)	nt	0.0	nt	96.3	nt
Nc1nn(-c2ccccc2Cl)cc1-c1nn[nH]n1	nt	0.1	nt	1.8	nt
Cc1cc(C)n(-c2c(F)c(F)c(CN3CCOCC3)c(F)c2F)n1	4.5	-0.1	-26.0	2.7	-11.0%
O=C(COc1ccc(Br)cc1)NCCCNC(=O)c1ccncc1	nt	-1.0	nt	-8.4	nt
Cc1cc(N2CCN(C)CC2)nc(=S)[nH]1	0.0	0.2	nt	-5.5	0.9%
Cn1c(Sc2ccc(C(=O)O)cc2[N+](=O)[O-])nnc1-c1ccccc1	9.8	-0.1	nt	-0.2	4.0%
Cc1cc(OCC(=O)N2CCc3ccccc3C2)c2c(-c3ccccc3)cc(=O)oc2c1	-15.6	13.0	-4.0	6.4	15.6%
COC(=O)c1ccc(C2/C(=C(\O)c3ccc4c(c3)OCCO4)C(=O)C(=O)N2CCCN(C)C)cc1 (stereo not drawn)	2.1	1.5	-60.7	-1.3	-3.4%
Cc1ccc(N(C(=O)c2csnn2)C(C(=O)NC2CCCC2)c2cccnc2)c(C)c1 (stereo not drawn)	nt	0.6	nt	0.2	nt
Cc1nccnc1Sc1ccccc1	nt	-0.5	nt	-3.9	-0.1%
CNC1=C(N(C(C)=O)c2ccc(Br)cc2)C(=O)c2ccccc2C1=O	-32.1	72.9*	84.0*	-4.8	0.654µM*
CN(Cc1cccnc1)C(=O)c1cc(COc2ccc3ncccc3c2)on1	7.9	-4.0	nt	4.5	13.2%
O=C(CN1C(=O)S/C(=C\c2cccs2)C1=O)Nc1ccc(C(=O)O)c(O)c1	nt	3.2	nt	-0.5	nt
O=C(O)CCC(=O)N1CCc2cc(S(=O)(=O)NC3CCCc4ccccc43)ccc21 (stereo not drawn)	-0.5	1.6	-17.4	-10.7	-7.1%
COC(=O)c1ccccc1NC(=O)c1cncc(Br)c1	7.3	-1.5	-22.6	4.3	-5.0%
Cc1ccc(C)c(OCCn2cc(/C=C(\C#N)C(=O)NCC3CCCO3)c3ccccc32)c1 (stereo not drawn)	-15.5	-21.2	-4.8	2.9	14.9%
COC(=O)C1=C(c2cc3ccccc3o2)C[C@@H]2CC[C@H]1N2C(=O)NCCCOC(C)C	nt	-0.1	nt	-2.9	1.5%
COc1cccc(S(=O)(=O)Nc2cccnc2)c1	1.4	-2.2	0.0	?	-2.3%
COc1ccc(/C=C(/NC(=O)c2ccccc2)C(=O)N/N=C/c2ccncc2)cc1	0.0	nt	-23.1	7.8	1.2%
N=c1n(CCO)c2ccccc2n1CCN1CCCCC1	7.5	-2.2	nt	-2.0	-5.7%
COc1cc(O)c(C(CCN2CCCCC2)c2ccc3c(c2)OCO3)c(OC)c1 (stereo not drawn)	nt	0.2	nt	0.8	-13.5%

Arranged by molar mass (lowest first): part of the list above
SMILES	Arbovirus inh	RecA intein inh	YopH inh	Mtb bLac sens	Mtb growth	others
Cc1nccnc1Sc1ccccc1	nt	-0.5	nt	-3.9	-0.1%
Cc1cc(N2CCN(C)CC2)nc(=S)[nH]1	0.0	0.2	nt	-5.5	0.9%
COc1cccc(S(=O)(=O)Nc2cccnc2)c1	1.4	-2.2	0.0	?	-2.3%
N=c1n(CCO)c2ccccc2n1CCN1CCCCC1	7.5	-2.2	nt	-2.0	-5.7%
COC(=O)c1ccccc1NC(=O)c1cncc(Br)c1	7.3	-1.5	-22.6	4.3	-5.0%
Cc1cc(C)n(-c2c(F)c(F)c(CN3CCOCC3)c(F)c2F)n1	4.5	-0.1	-26.0	2.7	-11.0%
Cn1c(Sc2ccc(C(=O)O)cc2[N+](=O)[O-])nnc1-c1ccccc1	9.8	-0.1	nt	-0.2	4.0%
CN(Cc1cccnc1)C(=O)c1cc(COc2ccc3ncccc3c2)on1	7.9	-4.0	nt	4.5	13.2%
O=C(COc1ccc(Br)cc1)NCCCNC(=O)c1ccncc1	nt	-1.0	nt	-8.4	nt
COc1cc(O)c(C(CCN2CCCCC2)c2ccc3c(c2)OCO3)c(OC)c1 (stereo not drawn)	nt	0.2	nt	0.8	-13.5%
COc1ccc(/C=C(/NC(=O)c2ccccc2)C(=O)N/N=C/c2ccncc2)cc1	0.0	nt	-23.1	7.8	1.2%
O=C(CN1C(=O)S/C(=C\c2cccs2)C1=O)Nc1ccc(C(=O)O)c(O)c1	nt	3.2	nt	-0.5	nt
Cc1cc(OCC(=O)N2CCc3ccccc3C2)c2c(-c3ccccc3)cc(=O)oc2c1	-15.6	13.0	-4.0	6.4	15.6%
COC(=O)C1=C(c2cc3ccccc3o2)C[C@@H]2CC[C@H]1N2C(=O)NCCCOC(C)C	nt	-0.1	nt	-2.9	1.5%
O=C(O)CCC(=O)N1CCc2cc(S(=O)(=O)NC3CCCc4ccccc43)ccc21 (stereo not drawn)	-0.5	1.6	-17.4	-10.7	-7.1%
COc1cc(OC)c(OC)cc1CCC(C)NCCC(c1ccccc1)c1ccccc1 (stereo not drawn)	nt	0.0	nt	96.3	nt
Cc1ccc(C)c(OCCn2cc(/C=C(\C#N)C(=O)NCC3CCCO3)c3ccccc32)c1 (stereo not drawn)	-15.5	-21.2	-4.8	2.9	14.9%
COC(=O)c1ccc(C2/C(=C(\O)c3ccc4c(c3)OCCO4)C(=O)C(=O)N2CCCN(C)C)cc1 (stereo not drawn)	2.1	1.5	-60.7	-1.3	-3.4%

(continued)
SMILES	Arbovirus inh	RecA intein inh	YopH inh	Mtb bLac sens	Mtb growth	others
CCCCN1C(=O)/C(=C2/Sc3ccc(Cl)cc3N2CC)SC1=S	nt	-1.8	nt	7.5	nt
O=c1[nH]c(O)c(N=Nc2cc([N+](=O)[O-])ccc2O)c(=O)[nH]1	-6.6	73.1*	nt	-6.9	39.4%
COc1ccccc1CC(=O)NCc1nn(-c2ccccc2)nc1C	nt	9.5	nt	-0.1	-5.4%
COc1ccccc1CNC(=O)COc1ccc(S(=O)(=O)N2CCCC2)cc1	nt	-0.8	nt	1.6	nt
O=C(OCc1nc2ccccc2s1)c1ccc(Br)s1	-4.7	0.6	-5.0	99.8	?
Cc1nnc2c3ccccc3c(-c3ccccc3)nn12	nt	2.9	13.7	2.9	6.0%
Cc1nnc(NC(=O)CSc2nccn2C)s1	-1.2	-0.3	-28.1	-3.4	-6.8%
N#CCn1cnc2c(oc3ccccc32)c1=O	nt	1.0	nt	?	nt
CCN1/C(=C/c2cc[n+](C)cc2)C=Cc2cc(C)ccc21	-10.5	nt	44.6	22.1	39.3%
Cc1ccc(-n2nnnc2-c2cccs2)cc1[N+](=O)[O-]	nt	-0.4	nt	-3.8	nt
CC(=O)NC1=NN(C(C)=O)C(C)(c2ccccn2)S1 (stereo not drawn)	-1.7	0.7	nt	-3.7	-1.3%
CN(C)C(Cc1ccccc1)C(=O)c1cccs1 (stereo not drawn)	-0.3	nt	nt	nt	6.1%
CC(=O)C1=C(O)C(=O)N(c2ccc(O)cc2)C1c1cccc([N+](=O)[O-])c1 (stereo not drawn)	nt	-0.7	nt	-1.5	nt

Assay outcomes from PubChem BioAssay.
